# Ecoli rRNA inh – inhibits bacterial ribosomal RNA function over humanized ribosomes; hit rate 1.6% among 350,000; AID 720706; E. coli WT GFP vs humanized-ribosome RFP mutants, fluorescence, 24 h; stronger effect = lower value; DMSO median 0, no signal -100; GFP signal change (wild-type ribosome), % (concentration not given with the values);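 active = significant combined selectivity score with lowered wild-type GFP, culture density cut under 30%, mutant RFP and density less affected; inactive = any of these conditions unmet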; note: one replicate is shown; some compounds called inactive have numbers as strong as hits
# Beta apoptosis – blocks beta cell apoptosis | hit rate 0.8% among 300,000 | INS-1E cytokine-induced death, ATP luminescence, 48 h; percent of positive-control rescue, neutral wells zero | protection from apoptosis, % (no concentration beside the values);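 active = all replicates at 75% or more, or half of them and the mean; inconclusive = half reach 75% but not the mean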;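 note: 0% = cytokine-treated negative control wells and 100% = positive control rescue; higher means more ATP so stronger rescue from cytokine killing; wells of about 40 µL received 100 nL stock; the first replicate is given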
# UCH37 inh – human UCH37 deubiquitinating enzyme inhibition; Q9Y5K5; purified proteasome/UCH37, Ub-AMC cleavage fluorescence; inhibition, % (test concentration not listed); hit rate 0.33% among 330,000;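 active = mean of two replicates above 20%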;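 note: 0% = compound-free wells with enzyme and 100% = wells lacking proteasome; stock transfer was 100 nL into about 20 µL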
# Target sequence (Q9Y5K5 whole entry, looked up): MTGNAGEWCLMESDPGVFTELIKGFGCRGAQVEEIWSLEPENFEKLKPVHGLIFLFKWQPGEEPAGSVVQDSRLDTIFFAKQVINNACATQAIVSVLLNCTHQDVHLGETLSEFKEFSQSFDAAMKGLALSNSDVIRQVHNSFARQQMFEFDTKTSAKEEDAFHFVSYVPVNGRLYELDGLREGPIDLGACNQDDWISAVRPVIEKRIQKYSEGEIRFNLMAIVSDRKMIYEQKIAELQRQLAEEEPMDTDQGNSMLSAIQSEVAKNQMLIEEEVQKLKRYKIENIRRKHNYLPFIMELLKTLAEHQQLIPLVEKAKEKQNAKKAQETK
#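 Test system – human UCH37 enzyme supplied as purified proteasome complex · Incubation – 30 min preincubation with enzyme, 25 min cleavage at room temperature · Detection – AMC fluorescence from Ub-AMC cleavage, excitation 355 nm, emission 460 nm · Benchmarks – no-proteasome wells (full inhibition) and compound-free wells (no inhibition)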
# T cruzi inh – T. cruzi replication inhibition; T. cruzi beta-gal in NIH3T3, luminescence, 90 h; inhibition, % (concentration not given with the values); hit rate 1.4% among 300,000; AID 1885;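 active = mean inhibition across valid replicates above about 55%, limit read from the data; inconclusive = mean below that limit but half or more replicates reach it; inactive = mean below it, under half of replicates reach it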;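 note: signal also drops with host cell toxicity which is not excluded here; 0% = plate median of DMSO wells and 100% = zero luminescence signal; higher percent means less beta-gal luminescence so fewer parasites; stock transfer was 50 nL into about 50 µL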
# AF4-AF9 inh – inhibitors of human MLL-AF4/AF9 interaction | P42568 | AlphaScreen, biotin-AF4 peptide binding to FLAG-AF9 | AID 651704 | inhibition, % at 10 µM | hit rate 0.47% among 350,000;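 active = every replicate reaching a set inhibition limit, whatever the replicate mean, cut at about 25% in these data; inconclusive = mean inhibition reaches that limit but some replicates miss it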;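 note: 0% = plate neutral control median and 100% = total signal loss; the record names both 10 and 1 µM as test concentration; the first replicate is given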
# Target sequence (P42568 whole entry, looked up): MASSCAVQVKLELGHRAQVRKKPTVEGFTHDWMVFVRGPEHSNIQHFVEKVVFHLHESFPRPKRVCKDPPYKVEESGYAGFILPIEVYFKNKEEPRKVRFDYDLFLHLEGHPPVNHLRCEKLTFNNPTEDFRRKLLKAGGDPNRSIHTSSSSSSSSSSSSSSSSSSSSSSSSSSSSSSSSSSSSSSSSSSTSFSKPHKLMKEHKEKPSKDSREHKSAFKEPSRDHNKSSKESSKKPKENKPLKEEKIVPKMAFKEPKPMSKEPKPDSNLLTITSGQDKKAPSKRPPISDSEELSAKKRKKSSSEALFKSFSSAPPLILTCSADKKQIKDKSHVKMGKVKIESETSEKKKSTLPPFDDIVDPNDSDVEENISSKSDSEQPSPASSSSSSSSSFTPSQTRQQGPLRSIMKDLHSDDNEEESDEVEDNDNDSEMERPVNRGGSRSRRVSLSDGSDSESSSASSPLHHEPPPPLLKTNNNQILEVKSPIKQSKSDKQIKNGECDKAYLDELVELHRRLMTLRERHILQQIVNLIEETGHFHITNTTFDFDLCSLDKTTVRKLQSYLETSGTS
# FGF22 binding – FGF22 (human) thermal shift binding; Q9HCT0; recombinant FGF22 thermal shift, SYPRO orange fluorescence; percent of sucrose octasulfate shift, DMSO zero; calls only at 9.99 µM; hit rate 1.5% among 340,000; AID 651658;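 active = melting point raised past a set limit in the mean and every replicate; inconclusive = no clear call; three in four hits are not shown here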
# Target sequence (Q9HCT0 whole entry, looked up): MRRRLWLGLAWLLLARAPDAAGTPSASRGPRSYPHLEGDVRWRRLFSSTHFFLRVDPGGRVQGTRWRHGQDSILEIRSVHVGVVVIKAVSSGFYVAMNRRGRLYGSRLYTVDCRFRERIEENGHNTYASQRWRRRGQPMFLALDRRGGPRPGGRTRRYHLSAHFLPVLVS
# Bfl-1 A1 inh – inhibitors of the anti-apoptotic protein A1, read as caspase activation; MEF A1-2A-BIM cells, Caspase-Glo 3/7 luminescence, 3 h; percent of clofoctol response, vehicle zero; caspase activation, % (no concentration beside the values); hit rate 0.066% among 330,000;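 active = over half of replicate activation scores above 10%, or exactly half above 10 with the replicate mean above 10; inconclusive = replicate mean below 10 yet half the replicates above 10; inactive = over half of replicates below 10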;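 note: wells of about 30 µL received 50 nL stock; many hits fall short of the cut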
# E coli growth – inhibitors of Escherichia coli growth. OD600 absorbance (test concentration not listed). OD600, 23 h; stronger effect = lower value. hit rate 0.21% among 330,000;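 active = OD600 absorbance below the run mean of sample wells minus 3.6 SD, in any replicate, cut at about 0.56 in these data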;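 note: stock transfer was 300 nL into about 60 µL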
# Ecoli rRNA inh OD600 – further read-out of Ecoli rRNA inh, marked with its call; OD600 change, %; measured here: OD600 growth;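 optical density of the mix in the first replicate; 0 = DMSO median and -100 = no signal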
# Ecoli rRNA inh RFP – recorded beside Ecoli rRNA inh, whose call it bears; RFP signal change, %; measured here: RFP humanized mutant strains;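 first replicate; 0 = DMSO median and -100 = no signal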
# Numbers without * were called inactive; i = inactive; ? = inconclusive; · = not tested or not shown. Only part of the results is shown. The share of hits here may be higher or lower than overall.
SMILES,Ecoli rRNA inh,Ecoli rRNA inh OD600,Ecoli rRNA inh RFP,Beta apoptosis,UCH37 inh,T cruzi inh,AF4-AF9 inh,FGF22 binding,Bfl-1 A1 inh,E coli growth
CCCCn1c(=O)c(C(=O)Nc2ccccc2)c(O)c2ccccc21,26,7,0.8,22,-1.8,-5,-0.7,i,-1.1,0.69
O=C1NC(=O)C(CCc2ccncc2)(CCc2ccncc2)C(=O)N1Cc1ccc(F)cc1,-11,-30,-7.9,·,2.9,-8,0.1,·,-0.8,0.68
Cc1cc2ccccc2c(=O)n1CC(=O)NCC(=O)N1CCC2(CC1)OCCO2,15,2,0.5,-2,-4.3,-40,1.6,i,0.3,0.68
COC(=O)C1=C(c2ccc(OC(F)(F)F)cc2)C[C@@H]2CC[C@H]1N2C(=O)NCc1cccc2ccccc12,7,2,-4.7,1,5.5,·,0.7,i,-0.6,·
O=C(C(Cc1ccccc1)NS(=O)(=O)c1ccc(F)cc1)N1CCC2(CC1)OCCO2 (stereo unspecified),·,·,·,1,1.8,-4,·,·,0.5,0.73
Cc1cc(=O)oc2cc(OCC(=O)N3C[C@H]4C[C@@H](C3)c3cccc(=O)n3C4)c(Cl)cc12,·,·,·,-1,-4.7,2,-1.4,i,-0.1,0.7
COCCNC(=O)c1c(N)n(CCC(C)C)c2nc3ccccc3nc12,·,·,·,-15,i,15,·,·,-0.4,0.65
CCOc1ccc(NC(=O)c2ccc(NC(=O)COC(=O)Cc3ccccc3)cc2)cc1,-3,3,0.1,10,4.6,-5,-5.4,i,-2.8,0.7
COc1cc2[nH]c(C(=O)N3CCC4(CC3)OCCO4)cc2c(OC)c1OC,-9,-5,1.4,2,0.0,-12,-0.3,i,0.6,0.66
Cc1ccc(CN2CCCN(Cc3ccccc3C)S2(=O)=O)cc1,-8,-22,0.1,3,2.7,-2,-0.7,i,-0.7,0.67
CC(=NCc1cccnc1)c1c(O)n(-c2ccccc2)c(=O)[nH]c1=O,·,·,·,4,0.3,-17,·,·,0.4,0.75
Nc1c(C(=O)NCc2ccco2)c2nc3ccccc3nc2n1Cc1ccccc1,·,·,·,-15,-234,-1,·,·,-0.7,0.74
CN(C)CCCN=Cc1c(O)n(Cc2ccco2)c(=O)[nH]c1=O,-1,6,-1.4,1,-0.4,4,0.4,i,0.6,0.76
CCn1cc(C(=O)N2CCOCC2)c2ccccc21,-10,-8,-0.2,-8,8.0,2,-0.1,i,-0.5,0.73
CCC(=NCC1CCCO1)c1c(O)[nH]c(=O)[nH]c1=O (stereo unspecified),·,·,·,-2,1.5,0,·,·,0.7,0.7
O=C(CN1CCCCC1)c1ccccc1F,13,10,2.3,0,5.7,-14,-0.7,i,0.8,0.63
N#CCCCCC#N,-2,6,-8.4,·,-2.7,·,-1.8,i,·,0.76
O=c1c2ccccc2nc(CSc2ncnc3nc[nH]c23)n1-c1ccc(Cl)c(Cl)c1,·,·,·,-1,0.6,2,·,·,0.5,0.73
Nc1ccncc1Cl,13,13,-0.7,-5,·,6,-0.5,i,0.3,·
COC1=CC2C3Cc4ccc(OC)c(O)c4C2(CCN3C)CC1=O (stereo unspecified),6,7,0.2,-5,-3.0,·,-2.9,i,-0.8,0.68
COc1ccc(C2=CC(c3ccc(OC)c(OC)c3)c3c(c4ccccc4oc3=O)O2)cc1OC (stereo unspecified),7,3,0.8,16,-4.9,16,1.4,i,0.4,0.72
CCCCn1c(O)c(C(C)=Nc2ccc(OCC)cc2)c(=O)[nH]c1=O,·,·,·,4,-0.8,9,·,·,-0.1,0.68
N[C@@H](Cc1c[nH]c2ccccc12)c1nnc(SCc2ccc(Cl)cc2)o1,·,·,·,-9,2.9,-2,·,·,-0.2,0.6
O=C1CC(=O)N(Cc2ccccc2)C(=O)N1CCCCCCN1C(=O)CC(=O)N(Cc2ccccc2)C1=O,-23*,8.0*,-3.8*,1,·,1,·,i,0.5,·
CCOP(=S)(OCC)SCC(=O)NC(C(=O)O)C(C)C (stereo unspecified),·,·,·,-9,-0.4,-8,·,·,-0.2,0.73

# Later entries.
SMILES,Ecoli rRNA inh,Ecoli rRNA inh OD600,Ecoli rRNA inh RFP,Beta apoptosis,UCH37 inh,T cruzi inh,AF4-AF9 inh,FGF22 binding,Bfl-1 A1 inh,E coli growth
CC(C)c1ccc(OCC(=O)N2CCCN(C)CC2)cc1,2,2,5.3,·,-2.0,9,-12,i,2.5,0.67
CC(C)(C)OC(=O)c1c(N)n(Cc2ccco2)c2nc3ccccc3nc12,·,·,·,2,i,-11,·,·,-0.8,0.73
CCCCNC(=O)c1c(N)n(Cc2ccc3c(c2)OCO3)c2nc3ccccc3nc12,-4,-4,8.3,2,-35,34,0.2,i,-0.3,0.73
c1cncc(CNC2CCCC2)c1,24,21,4.1,2,-0.6,·,2.8,i,-0.2,0.63
CN(C)C(=O)Oc1ccc(Br)c2ccccc12,-17,-19,-5.0,-9,0.8,0,0.6,i,-0.5,0.72
CNC(=O)O/N=C(\N)Cc1csc2ccc(Cl)cc12,-4,9,3.7,-5,·,12,-3.0,i,-0.8,·
O=C(Nc1ccc(Cl)c(Cl)c1)c1ccco1,-18,-44,8.9,2,-0.6,-17,0.4,i,-5.4,0.61
O=c1c2ccccc2nc(CNc2ccccc2)n1-c1ccccc1,4,6,1.6,-4,3.4,7,1.1,i,0.2,0.66
Cc1[nH]c2ccc(O)cc2c1CCN,·,·,·,-9,0.5,·,32*,i,-0.5,0.69
O=C(NCCCN1CCOCC1)C(Cl)(Cl)Cl,·,·,·,-1,0.1,-1,-0.2,i,0.8,0.68
Cc1ccc(C(=O)COC(=O)Cc2ccccc2)cc1,-24,-19,-4.3,-4,2.0,-7,-1.7,i,-0.1,0.69
CNCCc1c[nH]c2ccc(O)cc12,·,·,·,-3,4.5,-20,2.9,i,0.2,0.68
Cc1cccc(C)c1N1CCN(c2c(C)cccc2C)CC1,-2,0,-3.6,-8,4.0,-7,2.0,i,0.1,0.71
CCCc1nc2ccccc2c(=O)n1-c1cccc(OC)c1,·,·,·,3,2.2,9,·,·,-0.4,0.72
Cc1nn(C)cc1/C=C1/CC2C3CC=C4CC(O)CCC4(C)C3CCC2(C)C1=O (stereo unspecified),·,·,·,·,5.5,10,·,·,0.5,0.66
COc1ccc2c(c1)CC1(CN2C)C(=O)NC(=O)N(c2ccc(C)cc2)C1=O (stereo unspecified),·,·,·,-2,8.6,-11,·,·,0.4,0.72
C[N+]1(CC(COCc2ccccc2)OC(=O)Cc2ccccc2)CCOCC1 (stereo unspecified),11,6,0.0,3,3.4,3,-0.1,i,?,0.7
C=C1C2C[C@H](O)C(C)(C)[C@@]2(O)[C@H](O)C[C@]23C[C@@](C)(O)[C@H](CC[C@H]12)[C@H]3OC(C)=O (stereo partly specified),0,1,-2.3,-6,-0.5,-9,-2.3,i,-1.5,·
[O-]c1ccccc1-[n+]1c(-c2ccccc2)cc(-c2ccccc2)cc1-c1ccccc1,-53,-80,-33,95*,1.2,39,23,i,-1.2,0.61
O=C/C=C/c1ccccc1,4,0,-3.5,·,1.5,·,-3.3,i,·,0.72
Cc1ccc(-n2c(O)c(/C=N/NC(=O)c3ccncc3)c(=O)[nH]c2=O)cc1C,-26,-22,-9.2,0,-43,1,3.4,i,0.4,0.67
S=c1[nH]c2ccccc2[nH]1,3,-2,-4.7,-8,0.9,-6,-1.5,i,0.1,0.62
CCOP(=O)(OCC)C(NS(=O)(=O)c1ccccc1)C(Cl)(Cl)Cl (stereo unspecified),13,9,-1.9,-10,-0.4,?,-0.8,i,0.1,0.69
COC(=O)c1ccc(CN2CCSC2=N)cc1,21,13,2.4,·,-0.2,-26,-0.1,i,1.1,0.68
N#Cc1ccc(Cn2cc(C(=O)c3ccco3)c3ccccc32)cc1,·,·,·,0,0.2,2,·,·,1.0,0.72

# The listing continues.
SMILES,Ecoli rRNA inh,Ecoli rRNA inh OD600,Ecoli rRNA inh RFP,Beta apoptosis,UCH37 inh,T cruzi inh,AF4-AF9 inh,FGF22 binding,Bfl-1 A1 inh,E coli growth
O=C1NC(=O)N(CCc2ccc(F)cc2)C(=O)/C1=C/c1ccco1,20,2,9.1,-9,0.8,-15,-3.2,i,1.1,0.71
C[C@H]1CC[C@@H]2[C@@H](C)[C@H]3[C@H](C[C@H]4[C@@H]5CC=C6C[C@@H](O[C@@H]7O[C@H](CO)[C@H](O)[C@H](O[C@@H]8O[C@H](CO)[C@@H](O)[C@H](O)[C@H]8O)[C@H]7O[C@@H]7O[C@@H](C)[C@H](O)[C@@H](O)[C@H]7O)CC[C@]6(C)[C@H]5CC[C@]34C)N2C1,11,-2,-6.9,-5,1.3,-11,-1.1,i,0.2,0.74
COC(=O)C1=C(c2cc3ccccc3s2)C[C@@H]2CC[C@H]1N2C(=O)NC1CC1,·,·,·,2,3.7,-1,·,·,-0.2,·
CC1OC(C[N+](C)(C)C)CC1O (stereo unspecified),8,9,0.8,-1,2.0,·,1.9,i,-0.5,0.66
COc1ccc(OC)c(NP(=O)(Oc2ccc(Cl)cc2)Oc2ccc(Cl)cc2)c1,3,0,-5.5,8,4.9,17,4.8,i,1.1,0.71
Nc1ccc(C2(c3ccc(N)cc3)CCCCC2)cc1,-22,-19,-5.0,2,4.2,1,1.6,i,-0.2,0.73
CCOc1ccc(C2(C#N)CC[N+](C)(C)CC2)cc1,·,·,·,4,5.0,6,·,·,0.0,0.68
Cc1ccc(O)c(CN2CCN(c3ccccc3)CC2)c1,·,·,·,-5,5.0,-2,·,·,1.1,0.71
COC(=O)CN1C(=O)CN=C(c2ccccc2Cl)c2cc(Br)ccc21,-9,-8,-1.9,-2,7.1,-11,1.9,i,0.3,0.65
CC1CCN(C(=O)COC(=O)c2cn(C)c3ccccc23)CC1,-5,-13,-2.3,-1,0.3,·,0.4,i,0.5,0.66
CCn1c(O)c(C=NCc2cccs2)c(=O)[nH]c1=O,·,·,·,3,1.0,0,·,·,1.0,0.65
NC(=O)OCCSc1nnc(-c2cccc(C(N)=S)c2)o1,-15,-9,-13,·,3.7,-3,-7.3,i,-0.2,0.6
Cc1ccc(CNCCc2ccc(F)cc2)s1,7,9,0.4,-3,0.9,49,2.4,i,0.0,0.71
COc1ccc(-n2c(C)nc3ccccc3c2=O)c([N+](=O)[O-])c1,5,3,2.3,-7,1.8,-11,5.5,i,-0.5,0.64
CC(C)Oc1ccc(CCN)cc1Cl,9,-8,7.5,1,4.0,1,11,i,-0.5,0.66
O=C(c1c[nH]c2ccc(S(=O)(=O)N3CCC4(CC3)OCCO4)cc2c1=O)N1CCC2(CC1)OCCO2,12,8,0.4,-3,-46,-7,1.9,i,0.5,0.71
O=c1cc(CN2CCNCC2)nc2sccn12,8,5,-0.2,-3,1.8,-5,-0.8,i,0.2,0.7

# Compound activity as filed in PubChem BioAssay.
